Screens: PubChem, National Center for Advancing Translational Sciences (NCATS)
GLA inh pH 4.5 – alpha-galactosidase A (human) inhibition, pH 4.5. P06280. purified enzyme, 4-MU-alpha-Gal fluorescence, pH 4.5. activity change, negative = inhibition, % at 105 µM. 230,000 tested, under 10 active. AID 1467; inconclusive = small, poorly fitted or top-dose-only inhibition, or a rising curve; inactive = flat fitted curve, though single readings scatter; no compound was filed as active;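 note: 0% = full activity with enzyme and -100% = basal without enzyme; dose as in the result columns while the protocol names 77 µM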
Target sequence (P06280 whole entry, looked up): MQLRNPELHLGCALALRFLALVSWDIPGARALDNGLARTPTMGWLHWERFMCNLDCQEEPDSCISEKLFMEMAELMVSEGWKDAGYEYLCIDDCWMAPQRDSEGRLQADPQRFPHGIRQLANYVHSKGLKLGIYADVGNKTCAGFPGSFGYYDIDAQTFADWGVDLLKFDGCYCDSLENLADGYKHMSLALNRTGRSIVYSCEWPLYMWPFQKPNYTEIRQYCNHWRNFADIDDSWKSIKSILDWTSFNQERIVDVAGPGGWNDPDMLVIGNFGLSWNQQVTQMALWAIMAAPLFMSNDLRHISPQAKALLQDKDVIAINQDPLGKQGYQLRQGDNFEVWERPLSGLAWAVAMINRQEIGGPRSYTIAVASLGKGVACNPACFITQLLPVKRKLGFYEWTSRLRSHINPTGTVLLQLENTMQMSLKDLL
miR-21 reporter – miR-21 reporter, rising signal; AID 2288; 340,000 tested, under 10 active; Potency, µM (highest dose often 38.3 µM), for the others: at the highest dose reporter change, positive = more light; HeLa miR-21 FLuc reporter, luciferase, 48 h; active = well fitted rising curve with a large enough effect; inconclusive = small, poorly fitted or top-dose-only effect; inactive = no such curve, though single readings can be large or run the other way;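 note: % of control where 0% means no effect; miR-21 action dims this reporter so a rising signal means less miR-21 action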
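HeLa miR-21-FLuc reporter line, endogenous miR-21; 2000 cells/well in DMEM/10% FBS; compound titration up to ~40uM final, 48 h, 37 degree Celsius; luciferase detection reagent, 15 min lysis, CCD luminescence.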
An asterisk follows results filed as active; ? = inconclusive; / = not tested or not shown; & = joins results of further samples.

SMILES	GLA inh pH 4.5	miR-21 reporter
CC[C@H](CC[C@H](C)[C@@H]1CC[C@@H]2[C@H]3CC=C4C[C@@H](O)CC[C@]4(C)[C@H]3CC[C@]21C)C(C)C	6	/
C[C@@H]1O[C@H](O[C@@H]2[C@H](C)O[C@H](O[C@@H]3[C@H](C)O[C@H](O[C@H]4CC[C@]5(C)[C@@H](CC[C@@H]6[C@H]5C[C@@H](O)[C@]5(C)[C@@H](C7=CC(=O)OC7)CC[C@]65O)C4)C[C@@H]3O)C[C@@H]2O)C[C@H](O)[C@@H]1O	3	/
CCOc1ccccc1O[C@@H](c1ccccc1)[C@@H]1CNCCO1	-5	/
O=C(OCCO)c1ccccc1O	-4	/
CC(C)[C@@H](CC(=O)N[C@@H]1CCNC[C@H]1C(=O)N[C@H](CC(=O)N[C@@H](CCC(=O)O)CC(=O)O)Cc1c[nH]c2ccccc12)NC(=O)C[C@H](CO)NC(=O)[C@@H]1CCCC[C@H]1N	2	/
COC/C=C/C1=CC2=CC(=O)C(C)(OC(=O)c3cccs3)C(=O)C2=CO1 (stereo not drawn)	-7	/
CNCCCCCCCCSc1nc(C(C)C)ccc1C(=O)c1cccs1	-8	/
C[N+](C)(CCCOc1ccccc1)c1ccccc1	7	/
CN1C[C@H](C(=O)N[C@]2(C)O[C@@]3(O)C4CCCN4C(=O)[C@H](Cc4ccccc4)N3C2=O)C[C@@H]2c3cccc4[nH]cc(c34)C[C@H]21 (stereo partly drawn)	-5&1	/
COc1ccc(-c2nc(-c3ccccc3)c(Nc3ccc4ccccc4c3)o2)cc1	-5	/
COC(=O)c1ccc(C(NC(=O)OCc2ccccc2)/C(I)=C/[C@@H](C)C(=O)NCc2ccc(OC)c(O)c2)cc1 (stereo partly drawn)	?	/
CCC1=C2CC[C@H]3C(=O)N(CC(=O)OC)C(=O)[C@H]3[C@H]2[C@@]2(C)C(=O)N(Cc3ccccc3)C(=O)N2C1=O	-3	/
CCOC(=O)/C=C/CCCC=O	-1	/
Cc1noc(NS(=O)(=O)c2cccc3c(N(C)C)cccc23)c1C	-5	/
COC/C=C/C1=CC2=CC(=O)C(C)(OC(=O)c3cnc4ccccc4n3)C(=O)C2=CN1CCc1ccccn1 (stereo not drawn)	7	/
COc1ccc(CNc2cc(-c3ccccc3CN(C)C)ncn2)c(OC)c1	9	/
CNc1ccnc(-c2c(C)noc2C)n1	-1	/
COc1ccc2c(c1)C(=O)[C@@H](OC(=O)NCc1ccco1)[C@H](c1ccc(OC)c(Br)c1)O2	3	/
O=c1onc2n1-c1cc(Br)ccc1OC2	-10	/
NCC1CCC(N)C(O[C@@H]2C(O)[C@H](O[C@H]3OC(CO)C(O)C(N)C3O)[C@@H](N)C[C@H]2N)O1 (stereo partly drawn)	-5	/
CC1(C)OCC(CSC2=C(SCC3COC(C)(C)O3)C(=O)c3ncccc3C2=O)O1 (stereo not drawn)	-4	/
COC(=O)c1nnc(C(=O)NCc2ccccc2)c2[nH]c3ccccc3c12	-3	/
O=C(O)c1sccc1S(=O)(=O)Nc1ccc(Cl)cc1	-2	/
COC(=O)[C@@]1(Cc2ccccc2)[C@H]2c3cc(C(=O)N(C)C)n(Cc4ccccn4)c3C[C@H]2CN1C(=O)c1ccccc1	-7	/
CCCCCCCCCCCCC/C=C/[C@@H](O)C(CO)NC(C)=O (stereo partly drawn)	7	/
COC(=O)c1ccc(C(/C=C/[C@@H](C)C(=O)NCc2ccccc2)NC(=O)OCc2ccccc2)cc1 (stereo partly drawn)	-1	/
CCCCN1CCC[C@@H]1CNC(=O)c1cc(C#N)c2ccccc2c1OC	-7	/
COC(=O)[C@@]1(Cc2ccc(OC)cc2)[C@H]2c3cc(C(=O)N(C)C)n(C)c3C[C@H]2CN1C(=O)c1ccccc1	2	/
CSc1nnc(SC)nn1	-3	/
C=CCN1c2ccccc2[C@]23C[C@@H](C(=O)OC)N(S(=O)(=O)c4ccc(C#N)cc4)C2=NC(C(=O)OC)=C(C(=O)OC)[C@H]13	-6	/
CC(C)C[C@@H](NC(=O)OCC1c2ccccc2-c2ccccc21)C(=O)O	0	/
C[C@H](C(=O)O)c1cccc(Oc2ccccc2)c1	4	/
CCCC[C@@H]1C[C@H]1C(NC(=O)c1ccc(C(F)(F)F)cc1)c1ccc(C(=O)OC)cc1 (stereo partly drawn)	-6	/
COc1cc2c(cc1O)CCC1C2CC[C@@]2(C)C1CC[C@@H]2O (stereo partly drawn)	0	/
NC[C@@H]1O[C@@H](O[C@H]2[C@H](O)[C@H](O[C@@H]3O[C@H](CO)[C@@H](O)[C@H](N)[C@@H]3O)[C@@H](N)C[C@H]2N)[C@H](N)C[C@@H]1O	2	/
Cc1nc(NCc2ccccc2)c2nc(-c3ccccc3)n(CCN3CCCCC3)c2n1	-22	/
CC(C)NC[C@H]1CCc2cc(CO)c([N+](=O)[O-])cc2N1	7	/
CC(C)C[C@@H](CC(=O)N[C@@H](CCC(=O)O)CC(=O)O)NC(=O)[C@@H]1CCCC[C@H]1NC(=O)C[C@@H](NC(=O)C[C@H](CO)NC(=O)[C@@H]1CCCC[C@H]1N)C(C)C	-1	/
COC(=O)c1ccc(C(NC(=O)OCc2ccccc2)/C(=C/[C@@H](C)C(=O)N(C)Cc2ccccc2)c2cccnc2)cc1 (stereo partly drawn)	-26	/
O=S(=O)(NCCNC/C=C/c1ccc(Br)cc1)c1cccc2cnccc12	-8	/
C1=C(CN2CCOCC2)COc2c1cccc2OC[C@@H]1CNCCO1	0	/
Cc1ccc([N+](=O)[O-])cc1S(=O)(=O)N(C)C	-1&-7&3	/
CC(=O)OC1CC2C(C)(C)C=CC(=O)[C@@]2(C)C2CC[C@@]3(C)C(c4ccoc4)OC(=O)C4OC43[C@]12C (stereo partly drawn)	1	/
COc1ccc(-c2nc(-c3ccccc3)oc2NC(C)C)cc1	4	/
CSc1nc(NC2CCCC2)c([N+](=O)[O-])c(NC2CCCC2)n1	-8	/
COC(=O)[C@@]1(Cc2ccc(OC)cc2)[C@H]2c3cc(C(=O)N4CCCC4)n(CCF)c3C[C@H]2CN1C(=O)c1ccccc1	-3	/
COC(=O)CCCC1=CC2=CC(=O)C(C)(OC(=O)c3ccco3)C(=O)C2=CO1 (stereo not drawn)	-2	/
NCCC[C@@H](CC(=O)N[C@@H]1CCNC[C@H]1C(=O)N[C@H](CC(=O)N[C@@H](CCC(=O)O)CC(=O)O)Cc1ccccc1)NC(=O)C[C@H](Cc1c[nH]c2ccccc12)NC(=O)[C@@H]1CCCC[C@H]1N	-11	/
N#Cc1cccc(-c2nc(Nc3ccccc3)c3ccccc3n2)c1	5	/
COc1cc(C)c(CC/C(C)=C/C=C/C(C)=O)c(C)c1C	-7	/
NC(=O)C[C@H](NC(=O)Cc1ccc(O)cc1O)C(=O)O	0	/
O=C1O[C@H](CN2CCOCC2)CN1/N=C\c1ccc([N+](=O)[O-])o1	1	/
Cc1cccc(CNc2ncncc2-c2ccccc2C(F)(F)F)c1	-7	/
COC(=O)/C(Cc1cc(Br)c(OC)c(Br)c1O)=N/O	-12	/
CC1(C)C(=O)CC[C@@]2(C)C1CC(O)[C@@]1(C)C3=CC(=O)OC(c4ccoc4)[C@]3(C)CCC21 (stereo partly drawn)	0	/
NCCCCC(N)C(=O)NC(Cc1ccc(O)cc1)C(=O)NC(CCCCN)C(=O)O (stereo not drawn)	-1	/
NC(=O)c1cc[n+](CC2=C(C(=O)O)N3C(=O)[C@@H](NC(=O)[C@H](c4ccccc4)S(=O)(=O)[O-])[C@@H]3SC2)cc1	8	/
CC(=O)/C(=C\c1ccccc1)CC(=O)O	2	/
COC(=O)CC1C(C)(C)C(OC(C)=O)C2[C@H](OC(C)=O)[C@]34O[C@]2(O)[C@]1(C)C3CC[C@]1(C)C4=CC(=O)OC1c1ccoc1 (stereo partly drawn)	-25	/
CN(C)Cc1ccccc1-c1ccc2ncnc(NC3CCNCC3)c2c1	-1	/

Grouped by structure: those above with a CF3 group (two)
SMILES	GLA inh pH 4.5	miR-21 reporter
CCCC[C@@H]1C[C@H]1C(NC(=O)c1ccc(C(F)(F)F)cc1)c1ccc(C(=O)OC)cc1 (stereo partly drawn)	-6	/
Cc1cccc(CNc2ncncc2-c2ccccc2C(F)(F)F)c1	-7	/

Next section:
SMILES	GLA inh pH 4.5	miR-21 reporter
COc1cccc([C@@H]2Oc3ccc(OC)cc3C(=O)[C@H]2OC(=O)Nc2ccc(C)c(Br)c2)c1	-1	/
CCCCCCCc1cc2c(cn1)C(=O)C(C)(OC(C)=O)C(O)=C2Cl (stereo not drawn)	-1	/
CC[C@H](CO)Nc1nc(NCc2ccccc2)c2ncn(C(C)C)c2n1	-2	/
O=C(O)c1ccc(S(=O)(=O)N(Cl)Cl)cc1	2	/
Cc1c(C2CCN(CCc3ccccc3)CC2)noc1-c1ccc(Cl)cc1	-5	/
COC(=O)c1ccc(C(NC(=O)OCc2ccccc2)/C(=C/[C@@H](C)C(=O)NCc2ccc(OC)c(O)c2)c2cccnc2)cc1 (stereo partly drawn)	-3	/
CN(C)C(=O)c1ccc(-c2ccc3ncnc(NCc4cccnc4)c3c2)cc1	-3	/
CN(C)c1nc(N)c(C(=O)Nc2cccnc2)nc1Cl	-8	/
O=C1CC2(CCCC2)CC(=O)N1CCCCNC[C@H]1COc2ccccc2O1	-2	/
COC(=O)c1ccc(C(NC(=O)OCc2ccccc2)/C(F)=C/[C@@H](C)C(=O)Nc2ccc(OC)cc2)cc1 (stereo partly drawn)	9	/
CCCCCCN(C(=O)CCCCCN1C(=O)NC(c2ccc(C(F)(F)F)cc2)C(C(=O)OCc2ccccc2)=C1C)C(C(=O)NCCCC)c1ccc(OCC(=O)OC)c(C(=O)OC)c1 (stereo not drawn)	-1	/
C[Se]CCC(N)C(=O)O (stereo not drawn)	-2	/
COC(=O)[C@@]1(Cc2ccc(OC)cc2)[C@H]2c3cc(C(=O)N4CCCC4)n(Cc4ccccn4)c3C[C@H]2CN1C(=O)c1ccccc1	2	/
O[C@@H](c1ccccc1)C1CCN(CCc2ccccc2)CC1	-2	/
CCOC(=O)CN1C(=O)N[C@@H](c2cccc(C(F)(F)F)c2)[C@H](C(=O)OC)[C@H]1C	2	/
COc1cccc([C@@H]2Oc3ccc(OC)cc3C[C@H]2OC(=O)N[C@H]2CCCc3ccccc32)c1	-3	/
C=C1c2ccccc2O[C@H](C(=O)OCC)[C@@H]1C1CCCCC1 (tested in a mixture with another compound)	-6	/
CCCCCCCCCCCCCCCC(=O)OCC(O)C1OC(=O)C(O)=C1O (stereo not drawn)	-2	/
COC(=O)C/C=C/[C@@H](C)[C@@H](Cc1ccccc1Br)OC	-6	/
CN(C)c1ccc(-c2nccc(NCCN3CCOCC3)n2)cc1	-11	/

Single records, from the list above. Order of values: GLA inh pH 4.5	miR-21 reporter
CC[C@H](CO)Nc1nc(NCc2ccccc2)c2ncn(C(C)C)c2n1 across the screens: -2	/
CN(C)c1nc(N)c(C(=O)Nc2cccnc2)nc1Cl across the screens: -8	/
CCCCCCN(C(=O)CCCCCN1C(=O)NC(c2ccc(C(F)(F)F)cc2)C(C(=O)OCc2ccccc2)=C1C)C(C(=O)NCCCC)c1ccc(OCC(=O)OC)c(C(=O)OC)c1 (stereo not drawn) across the screens: -1	/

(cont.)
SMILES	GLA inh pH 4.5	miR-21 reporter
CCCCCCCC1Cc2ccccc2C(C(C(=O)OC)C(=O)OC)N1C(=O)OC (stereo not drawn)	-2&2	/
NC(C(=O)NC1C(=O)N2C(C(=O)O)=C(Cl)CSC12)c1ccccc1 (stereo not drawn)	6	/
CC(C)(O)CCC(O)[C@@](C)(O)C1CC[C@]2(O)C3=CC(=O)C4CC(O)C(O)C[C@]4(C)C3CC[C@]12C (stereo partly drawn)	1	/
OCC1OC(O)C(O)C(O)C1O (stereo not drawn)	-5	/
CCC(=O)O[C@@]1(C(=O)CCl)C(C)CC2C3CCC4=CC(=O)C=C[C@@]4(C)[C@]3(F)C(O)C[C@]21C (stereo partly drawn)	-22	/
CC(C)=CCC/C(C)=C/CC/C(C)=C/CSCC(=O)O	-4	/
COC(=O)C1=C(C(=O)OC)[C@@H]2Nc3ccccc3[C@@]23C[C@@H](C(=O)OC)N(S(=O)(=O)c2ccc(C)cc2)C3=N1	8	/
CNC(=O)[C@@]1(C)C=C[C@@H](Cc2ccccc2)N1C(C)=O	-9	/
CCOC(=O)CCC(=O)O[C@H]1C(O[C@@H]2C(C)[C@H](O[C@H]3C[C@@](C)(OC)C(O)C(C)O3)C(C)C(=O)OC(CC)[C@@](C)(O)C(O)[C@H](C)C(=O)C(C)C[C@]2(C)O)OC(C)CC1N(C)C (stereo partly drawn)	2	/
CN(C)c1nc2c(Br)c(Br)c(Br)c(Br)c2[nH]1	-1	/
CC[C@@H]1OC(=O)[C@H](C)[C@H](O[C@@H]2C[C@](C)(OC)[C@H](O)[C@H](C)O2)[C@H](C)[C@H](O[C@@H]2O[C@@H](C)C[C@@H](N(C)C)[C@@H]2O)[C@](C)(O)C[C@H](C)C(=NOCOCCOC)[C@H](C)[C@H](O)[C@]1(C)O	-3	/
COc1cccc(-n2nnc(-c3nc(-c4ccccc4F)no3)c2C)c1	/	-26%
CC1=C(C(=O)OC2CCCC2)C(c2ccc(F)cc2F)CC(=O)N1 (stereo not drawn)	/	10%

A few values from the list.
Entry for Cc1c(C2CCN(CCc3ccccc3)CC2)noc1-c1ccc(Cl)cc1 under GLA inh pH 4.5: -5
Entry for COc1cc2c(cc1O)CCC1C2CC[C@@]2(C)C1CC[C@@H]2O (stereo partly drawn) under GLA inh pH 4.5: 0

This is a subset, so the mix of outcomes need not match the whole.
